# 26S disassembly: blocks ATP-dependent breakdown of the yeast 26S proteasome. AID 751. inhibition of disassembly, % (concentration not given with the values). 24,000 compounds, 0.2% hits. anti-FLAG beads, GFP-proteasome disassembly, flow cytometry;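 active = above 40%; inconclusive = likely self-fluorescent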;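 also: plate controls were ATP control with full disassembly for no effect and ATP-gamma-S intact proteasomes for full effect; higher percent means more bead fluorescence retained so stronger block of disassembly; stock transfer was 100 nL into about 10 µL; wells with too few beads may also be inconclusive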
# VCAM-1 rise: boosters of cytokine-driven VCAM-1 levels – cell-based, plate reader, pooled HUVEC, TNFa stimulus (AID 455) | HUVEC TNFa-induced VCAM-1 immunofluorescence, plate reader; numbers were filed only for top-ranked candidate wells | augmentation, % at 5 µM | 10,000 compounds, 0.2% hits;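 active = a compound raising TNF-alpha-driven VCAM-1 surface staining, with its hit status upheld on visual or statistical review; inactive = the rest, including hits rejected on review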;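 also: 0% = TNFa with vehicle and 100% = strongest image-checked hit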
# * = called active by the depositor; i = inactive; ? = inconclusive; / = not tested or not shown. The list is partial; the hit share may differ from the screen's.
# Values run as follows: 26S disassembly	VCAM-1 rise
- CCN(CC)S(=O)(=O)c1ccc(NC(=O)CN(c2cccc(F)c2)S(C)(=O)=O)cc1
  2.2	i
- COc1cccc(NC(=O)NCCCN2CCN(c3ccc(F)cc3)CC2)c1
  1.3	/
- Cc1c(C(=O)NC(C)C)oc2c1-c1[nH]ncc1CC2
  -1.5	/
- COC(=O)COc1ccc(C(=O)OC)cc1
  -1.2	i
- COCCCNC(=O)CCCn1c(=O)c2ccccc2n(CC(=O)Nc2c(C)cc(C)cc2C)c1=O
  0.2	/
- O=c1cc(O)c2c(=O)[nH]c(=O)n(-c3ccccc3)c2[nH]1
  0.7	/
- COc1ccc(OCC(O)COc2ccc(C(=O)O)cc2)cc1 (configuration not stated)
  0.4	/
- CCN(CC)CCn1c2ccccc2c2nc(C)sc21
  -1.3	i
- COC(=O)c1ccccc1NC(=O)Cn1cc(Br)cn1
  -1.3	/
- O=c1cc(N2CCC3(CC2)OCCO3)[nH]c(=O)n1-c1ccc(Br)cc1
  -0.2	/
- Cc1ccc(N2C(=O)c3oc4ccccc4c(=O)c3C2c2cccc(O)c2)nc1 (configuration not stated)
  0.1	i
- O=c1[nH]c2ccc(Br)cc2c(-c2ccccc2)c1N1CCOCC1
  2.4	i
- O=C(O)c1c[nH]c2ccc(S(=O)(=O)N3CCN(c4ccc(F)cc4)CC3)cc2c1=O
  1.1	i
- COc1ccc(Nc2nnc(Cc3ccc(Cl)cc3)c(=O)[nH]2)c(OC)c1
  1.1	/
- CC(C)CCNC(=O)CCCn1c(=O)[nH]c2ccc(Br)cc2c1=O
  -2.8	/
- CCS(=O)(=O)N1CCC(C(=O)NCCCN2CCC(Cc3ccccc3)CC2)CC1
  6.5	/
- CCOC(=O)C(C)Sc1nnc(Cc2cc(=O)[nH]c(=O)[nH]2)n1-c1cccc(OC)c1 (configuration not stated)
  -0.8	/
- NC(=O)CSc1nnc(-c2cc3ccccc3o2)n1Cc1ccccc1
  0.1	i
- CNc1ccc(C(O)(C(F)(F)F)C(F)(F)F)cc1C(O)(C(F)(F)F)C(F)(F)F
  0.8	i
- COc1ccc(NC(=O)CCNC(=O)Cn2cnc3ccccc3c2=O)c(OC)c1
  0.4	/
- Cc1ccccc1Cn1nc(C)c(NC(=O)c2cc(-c3cccs3)on2)c1C
  0.1	/
- CCOC(=O)C1CCN(C(=O)c2cnn3c(C)cc(C)nc23)CC1
  0.5	/
- COc1ccc(S(=O)(=O)NCCC(=O)NCc2cccs2)cc1
  -0.2	/
- O=C(CSc1nc2ccccc2n1CC(=O)N1CCCC1)Nc1nccs1
  0.1	i
- CCn1c(=O)cc(SCC(=O)N2CCN(C(=O)c3ccco3)CC2)c2ccccc21
  -0.1	/
- CCCCCn1c(S(=O)(=O)O)nc2ccccc21
  0.2	/
- CCOC(=O)N1CCC(NC(=O)c2cc3cc4cc(OC)ccc4nc3o2)CC1
  0.1	/
- CCn1c(SCC(=O)N2CCN(c3ccc(Cl)cc3)CC2)nc2ccccc2c1=O
  -1.2	i
- COc1ccc(-c2nn(C)c3sc(C(=O)NCc4ccco4)cc23)cc1OC
  -3.0	/
- Cc1ccccc1OCC(=O)Nc1ccc2c(c1)OCO2
  -0.6	/
- O=C(NCCN1CCOCC1)c1cc2sccc2n1Cc1ccc(F)cc1
  -0.4	/
- Cc1noc(C)c1S(=O)(=O)N1CCC(C(=O)N2CCN(c3ccc(F)cc3)CC2)CC1
  -0.7	/
- Cc1cc(C(=O)N2CCc3ccccc32)n(-c2ccccc2)n1
  -0.4	/
- O=C1c2ccccc2S(=O)(=O)N1CC(O)Cn1c2ccccc2c2ccccc21 (configuration not stated)
  1.3	i
- FC(F)(F)c1ccc2c(c1)nc1n2CCCC1
  3.1	/
- O=C(NCc1cccs1)C1CCCN(S(=O)(=O)c2cccs2)C1 (configuration not stated)
  0.2	/
- O=C(c1ccc(COc2c(F)c(F)c(F)c(F)c2F)o1)N1CCOCC1
  0.1	i
- O=S(=O)(NC1CCCCC1NS(=O)(=O)c1ccc(F)cc1)c1ccc(F)cc1 (configuration not stated)
  -0.7	i
- Cc1ccc(-c2nnc(SCC(=O)Nc3ccccc3F)o2)cc1
  1.3	/
- O=C(CN1CCN(S(=O)(=O)c2ccc(Cl)cc2)CC1)Nc1ccc2c(c1)OCCO2
  0.3	/
- Cc1c(C(=O)O)oc2ccc(S(=O)(=O)NCc3ccc4c(c3)OCO4)cc12
  0.0	/
- O=C(CN1C(=O)c2ccccc2C1=O)Nc1ccccc1C(=O)N1CCCC1
  0.6	i
- Cc1nc2ccc(S(=O)(=O)NC(C(=O)NCc3cccs3)C(C)C)cc2s1 (configuration not stated)
  1.4	i
- CCc1nc2ccccc2c(=O)n1CCCCn1c(CC)nc2ccccc2c1=O
  1.5	/
- O=C(CCSCCc1ccncc1)NCCCN1CCOCC1
  0.6	/
- CC(=O)Nc1ccc(N=Cc2nc(-c3ccc(C)cc3)oc2O)cc1
  2.2	i
- COc1ccc(N(CC(=O)NC2CCCCC2)S(=O)(=O)c2cccnc2)cc1
  1.1	/
- O=C1Nc2cc(Cl)cnc2N2CCCC12 (configuration not stated)
  -1.1	/
- COc1cc(Cn2cnnn2)ccc1O
  -1.9	/
- Cc1cc(C)n2nc3nc(N4CCCC4)nc(-c4ccccc4)c3c2n1
  1.9	/
- Cc1ccc(NC(=O)CN(C)S(=O)(=O)c2cccc3nsnc23)cc1C
  1.5	/
- CCCCCn1c(=O)[nH]c2cc(C(=O)NCCCN3CCCCC3)ccc2c1=O
  4.1	i
- O=C(Nc1nc2ccc(S(=O)(=O)N3CCCC3)cc2s1)C1CCCO1 (configuration not stated)
  -1.0	i
- COC(=O)c1[nH]c2ccc(C)cc2c1NC(=O)CN1CCCc2ccccc21
  ?	i
- COc1ccc(-c2nc(CS(=O)CC(=O)NCc3ccco3)c(C)o2)cc1 (configuration not stated)
  -0.1	/
- COc1ccc(OC)c(S(=O)(=O)N2CCC(C(=O)NCc3ccccc3OC)CC2)c1
  -2.1	i
- CCN1CCCC1CNC(=O)c1ccc(N2CCCC2=O)cc1 (configuration not stated)
  7.1	/
- c1ccc(CCNc2nc3ccccc3n3nnnc23)cc1
  1.2	/
- Cn1nnc2cc(C(=O)N3CCCCCC3)ccc21
  0.4	i
- O=C(Nc1ccncc1)c1cc2ccccc2o1
  10.3	i

# (list continues)
# Values run as follows: 26S disassembly	VCAM-1 rise
- C=CCOC(=O)C1=C(C)OC(N)=C(C#N)C1c1ccccc1F (configuration not stated)
  1.8	/
- CCOC(=O)c1ccn(-c2nc(-c3ccco3)cc(C(F)(F)F)n2)n1
  2.3	/
- O=C(Nc1ccc2c(c1)OCO2)c1nn(-c2ccccc2)c(=O)c2ccccc12
  2.5	i
- COc1cccc(-c2cc(C(=O)NCCc3ccccc3)no2)c1
  -1.7	/
- O=C(NCc1ccco1)c1cc2ccccc2c(=O)o1
  0.5	/
- CCOC(=O)CN1C(=O)C(CC)Oc2ccc(Cl)cc21 (configuration not stated)
  2.3	/
- CCOc1ccccc1NC(=O)N1C2CCCC1CC(NC(=O)C1CC1)C2 (configuration not stated)
  -1.1	i
- CNC(=O)C1CCC(=O)N1Cc1ccc(C)cc1 (configuration not stated)
  3.0	/
- Cc1cc2ncn(C(=O)N3CCOCC3)c2cc1C
  -1.4	i
- O=c1c(-c2ccccc2)coc2c(CN3CCOCC3)c(O)ccc12
  -1.2	i
- O=C(CCCCn1c(=O)c2ccccc2n(CC(=O)NC2CCCC2)c1=O)NC1CCCC1
  0.1	/
- CCS(=O)(=O)NCCc1csc(-c2ccccc2)n1
  -0.9	/
- CCn1ncc(C2=NOC(C(=O)Nc3cccc(C(C)=O)c3)C2)c1C (configuration not stated)
  6.8	/
- O=c1ccc(Br)c[nH]1
  0.5	/
- Cc1c2c(n3c(nc4ccccc43)c1C#N)N(Cc1ccccn1)CC2
  -0.7	/

# The closing six records of the part before are carried over, then new ones follow:
mol,26S disassembly,VCAM-1 rise
O=c1c(-c2ccccc2)coc2c(CN3CCOCC3)c(O)ccc12,-1.2,i
O=C(CCCCn1c(=O)c2ccccc2n(CC(=O)NC2CCCC2)c1=O)NC1CCCC1,0.1,/
CCS(=O)(=O)NCCc1csc(-c2ccccc2)n1,-0.9,/
CCn1ncc(C2=NOC(C(=O)Nc3cccc(C(C)=O)c3)C2)c1C (configuration not stated),6.8,/
O=c1ccc(Br)c[nH]1,0.5,/
Cc1c2c(n3c(nc4ccccc43)c1C#N)N(Cc1ccccn1)CC2,-0.7,/
Cc1cc(Nc2ccc(Br)cc2)n2nc(C)nc2n1,-0.8,/
CCOc1ccc(-c2nc(CSCC(=O)N3CCN(C(=O)c4ccco4)CC3)c(C)o2)cc1,-0.6,/
Cn1cnnc1SCC(=O)Nc1ccc2nc(SCc3ccccc3)sc2c1,1.1,/
CC(C)n1c(CN2CCN(C)CC2)nc2c1c(=O)n(C)c(=O)n2C,-0.2,i
Cc1cc(NC(=O)c2cccc(COc3ccc(Br)cc3)c2)no1,0.5,/
COc1ccc(Cl)cc1-n1c(N)c(C(N)=O)sc1=S,2.8,/
COC(=O)C1=C(NC(=O)c2cccc(OC)c2)CCS1,0.8,/
CC1(C)CC(=O)C(CCC(=O)c2ccccc2)C(C)(C)N1 (configuration not stated),1.1,/
CCN(CC(=O)Nc1ccc(S(N)(=O)=O)cc1)S(=O)(=O)c1cc(C)ccc1OC,0.2,i
CCOC(=O)Cc1nnc2c(Nc3ccccc3F)nc3nonc3n12,-2.7,i
COc1ccc(Oc2c(C)oc3cc(OC(=O)N4CCOCC4)ccc3c2=O)cc1,0.5,i
COc1cccc(-n2c(SCC(N)=O)nc3c([nH]c4ccccc43)c2=O)c1,-0.9,/
COC(=O)c1nc2n(n1)C(c1cc(OC)ccc1OC)C(C(=O)OC1CCCCC1)=C(C)N2 (configuration not stated),-2.0,/
O=C(NCC(c1cccnc1)N1CCN(c2ccc(F)cc2)CC1)c1ccc2c(c1)OCO2 (configuration not stated),-2.2,/
Cn1c(=O)oc2cc(S(=O)(=O)NCCN3CCc4ccccc4C3)ccc21,15.5,/
Cc1cccc(Nc2ncc3c(n2)CC(c2ccco2)CC3=O)c1 (configuration not stated),1.4,i
COc1ccccc1-n1cc(C(=O)NCC(=O)N2CCN(c3ccccc3)CC2)c2ccccc2c1=O,0.8,/
O=C(Cn1cnc2c(oc3ccccc32)c1=O)NCCc1ccccc1,-0.9,/
COc1ccccc1CNC(=O)C1CCN(S(=O)(=O)N2CCCCC2)CC1,-0.3,i
CCOC(=O)c1ccc(CNC(=O)Cn2nnc(-c3ccc(C)cc3)n2)o1,-0.2,/
Cc1ccc2c(c1)c1c(n2CC(O)Cn2c(C)nc3ccccc32)C(=O)CCC1 (configuration not stated),0.2,/
Cc1sc(NC(=O)c2ccco2)c(C(c2cccnc2)N2CCN(c3ccc(F)cc3)CC2)c1C (configuration not stated),0.3,/
O=C(Nc1ccc(OC(=O)c2ccco2)cc1)c1ccco1,-0.7,i
CCOc1ccc(N2C(N)=NC(N)=NC2(C)C)cc1,-1.7,i
Cn1cccc1Cc1nnc(SCC(=O)NCc2ccco2)n1-c1ccc(F)cc1,-0.6,/
COCCNC(=O)CCSCc1ccccc1F,0.0,/
CC1CCN(c2nc(-c3ccccc3)cc(C(F)(F)F)n2)CC1,-0.4,/
COc1ccc(S(=O)(=O)N2CCN(c3c(C)cccc3C)CC2)cc1OC,-0.7,/
CC1=C(C(=O)N2CCN(C(=O)c3ccco3)CC2)C2(CCC(C)CC2)OC1=O (configuration not stated),-0.3,/
Cc1c(CCC#N)c(N2CCN(C3CCCCC3)CC2)n2c(nc3ccccc32)c1C#N,?,i
Clc1ccc(Nc2ncnc3c2cnn3-c2ccccc2)cc1,2.4,i
CCC(C)NC(=O)CS(=O)(=O)Cc1nc(-c2cccc(OC)c2)oc1C (configuration not stated),1.2,i
CCN(CC)CCNC(=O)CCCNC(=O)Cn1cnc2sc(C)c(C)c2c1=O,1.3,/
CCC(C)NC(=O)Cn1c(=O)n(-c2ccccc2)c(=O)c2ccc(C(=O)NCc3ccco3)cc21 (configuration not stated),-0.4,/
CCOc1ccc(OCC)c(NS(=O)(=O)c2ccc3c(c2)n(C)c(=O)c(=O)n3C)c1,-1.5,i
Cc1ccc2c(c1)N(CC(=O)NC1CCCc3ccccc31)C(=O)CO2 (configuration not stated),0.1,/
CCOc1c2c(nc3ccc(Cl)cc13)CCC2,4.9,/
COC(=O)C1=C(C(C)=O)C(c2ccc(C(=O)OC)cc2)n2nnnc2N1 (configuration not stated),0.2,/
CC(=O)Nc1ccn(-c2ccccc2)n1,0.8,i
C1=C(c2cccc3ccccc23)N2CCN=C2S1,-1.8,/
O=c1cc(N2CCN(c3ccccc3)CC2)[nH]c(=O)n1-c1ccccc1Cl,1.6,/
CCN(c1ccc2c(c1)OCO2)S(=O)(=O)c1cc(Br)cc2c1N(C(=O)C1CC1)CC2,28.9*,i
CCOC(=O)C1CCN(c2c(N3CCN(Cc4ccccc4)CC3)c(=O)c2=O)CC1,-0.6,/
Clc1cccc2sc(N3CCOCC3)nc12,-1.6,/
CCOCCCN(C(=O)Nc1ccc(CC)cc1)C1CCN(C(C)=O)CC1,0.3,/
COc1ccc(S(=O)(=O)Nc2cc(C)on2)cc1OC,-0.7,i
CCCOc1ccc2oc(=O)c3c(c2c1)CCCN3C(=O)CN1CCc2ccccc2C1,0.5,/
CCOC(=O)c1ccc(NS(=O)(=O)c2ccc3c(c2)CCCN3C(C)=O)cc1,-0.5,i
COc1cccc(OC)c1C(=O)n1nc(C)cc1C,-2.9,i

# Assay outcomes: PubChem, several laboratories
